TRPML1 blocker – inhibitors of human TRPML1 channel; activity change, negative = inhibition, % (concentration not given with the values); Q9GZU1; hit rate 0.02% among 390,000; TRPML1-inducible cells, Ca2+ dye fluorescence, FDSS; hits give low values; inhibition of EC80 agonist-evoked calcium signal; in the data active means activity change below about -50%; inconclusive means about -30% to -50%; inactive means above about -30%;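 note: stimulus is agonist 54-4 at its EC80 concentration; % is set by controls: 0 for no effect and ±100 for the full control effect; compound concentration not given in the record; the text of the record puts the active cut at -80%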
Target sequence (Q9GZU1 whole entry, looked up): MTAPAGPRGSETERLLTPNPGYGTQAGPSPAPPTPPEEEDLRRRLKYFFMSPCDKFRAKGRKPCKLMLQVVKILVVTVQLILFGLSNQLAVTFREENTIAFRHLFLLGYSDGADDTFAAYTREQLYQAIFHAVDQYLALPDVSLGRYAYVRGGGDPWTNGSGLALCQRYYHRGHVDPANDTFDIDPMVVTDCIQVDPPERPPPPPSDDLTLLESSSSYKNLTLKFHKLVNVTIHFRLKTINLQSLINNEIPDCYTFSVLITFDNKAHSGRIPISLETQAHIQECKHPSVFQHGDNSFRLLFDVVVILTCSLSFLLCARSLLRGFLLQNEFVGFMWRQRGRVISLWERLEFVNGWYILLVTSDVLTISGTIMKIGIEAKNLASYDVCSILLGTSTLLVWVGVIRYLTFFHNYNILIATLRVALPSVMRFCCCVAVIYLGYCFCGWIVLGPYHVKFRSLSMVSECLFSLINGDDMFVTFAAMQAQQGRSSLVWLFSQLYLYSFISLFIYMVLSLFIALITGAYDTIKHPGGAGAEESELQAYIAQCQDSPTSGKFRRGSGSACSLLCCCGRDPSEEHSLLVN
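TRPML1-DL cells, Tet-induced overnight (~16 h, 37 °C) at 1,500 cells/well, were loaded with Ca8 no-wash dye plus quencher for 45-90 min at room temperature. Compounds were pinned during FDSS kinetic reading; agonist 54-4 at EC80 (4 uM final) then added.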
TRPML1 agonist – human mucolipin-1 channel agonism; Q9GZU1; TRPML1-expressing cells, Ca2+ dye fluorescence, FDSS; host cell line not named in the record; reference of the full effect not given here; activation, % (test concentration not listed); hit rate 0.12% among 410,000; AID 624414; in the data active = activation above about 50%; inconclusive = about 30% to 50%; inactive = below about 30%; note: 0% is about no effect; the text of the record puts the active cut at 80%
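Tet-induced TRPML1-DL cells, 1,500 per well, cultured overnight, were loaded with a no-wash Ca2+ dye for 45–90 min. Calcium fluorescence was recorded on the FDSS for 110 s after compound addition, before the EC80 agonist (4 uM 54-4) was added.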
gsp agonist – gsp mutant agonism | hit rate 0.13% among 340,000 | Potency, µM (top dose mostly 76.9 µM), without a hit: top-dose activation (cAMP increase), most hits filed as activators | AID 624287 | gsp mutant cells, cAMP HTRF, 30 min; control for the full effect not named in the record; active = well fitted activation curve with a large enough effect; inconclusive = small, poorly fitted or top-dose-only effect, or another doubt; inactive = no such curve, though single readings can be large or run the other way; cell line not stated here;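 note: phosphodiesterase inhibitor Ro 20-1724 added with compounds to block cAMP breakdown; potency is the fitted concentration of half-maximal effect; nearly all actives have a fitted effect of over 60% in size; about a fifth of the inactives were tested at one dose only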
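Cells stably selected in G418 were plated at 2000/well, grown 16-24 hr, then given compounds in DMSO with the PDE inhibitor […] (300 uM solution added) for 30 min at 37C; cAMP was read by HTRF.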
gsp antagonist – gsp mutant antagonism | gsp-mutant cells, cAMP HTRF, 30 min; control for the full effect not named in the record | AID 624288 | hit rate 0.4% among 340,000 | Potency, µM (doses to about 76.9 µM), without a hit: at the highest dose activity change, negative = inhibition, hits mostly inhibitors; active = falling curve of any shape with a large fitted effect; inconclusive = falling curve, mostly with a smaller effect; inactive = flat or rising curve; cell line not stated here;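 note: intracellular cAMP measured with PDE inhibitor Ro 20-1724 present during compound exposure; potency is the fitted concentration of half-maximal effect; % is set by controls: 0 for no effect and ±100 for the full control effect; nearly all actives have a fitted effect of over 65% in size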
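Cells in G418 medium, seeded 16-24 h, 37C; buffer exchange to DPBS + 1 mM CaCl2, 0.5 mM MgCl2, 0.05% BSA; cpds in DMSO + […] (300 uM stock), 30 min 37C; HTRF cAMP detection.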
Menin MLL FP FL – displaces fluorescein MLL peptide from human menin. Fluorescence polarization, fluorescein-MLL peptide displacement from menin. FP activity change, % at 61.4 µM. 290,000 tested, under 10 active. AID 1766; inconclusive = falling polarisation curve, or a change in total fluorescence; inactive = total fluorescence flat and polarisation flat or rising; no compound was filed as active; the % refers to the polarisation; negative = inhibition;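 note: % of control where 0% means no effect; inhibitors lower the polarisation; unlabelled MLL peptide was the positive control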
ClpP mod – qHTS Assay for Activators of ClpP | ATP-dependent Clp protease proteolytic subunit (Bacillus subtilis (strain 168)), P80244 | purified B. subtilis ClpP, FRET peptide cleavage, 20 min | Potency, µM (top dose mostly 57.5 µM), for the others: at the highest dose activity change, negative = active | hit rate 1.9% among 340,000 | AID 651965, 2013; active = well fitted falling curve with a large enough effect; inconclusive = small, poorly fitted or top-dose-only effect; inactive = no such curve, though single readings can be large or run the other way; note: potency is the fitted concentration of half-maximal effect; the source files actives as falling curves though it sought activators and does not explain the sign; nearly all actives have a fitted effect of over 65% in size; many hits overshoot -100%
Target sequence (P80244 whole entry, looked up): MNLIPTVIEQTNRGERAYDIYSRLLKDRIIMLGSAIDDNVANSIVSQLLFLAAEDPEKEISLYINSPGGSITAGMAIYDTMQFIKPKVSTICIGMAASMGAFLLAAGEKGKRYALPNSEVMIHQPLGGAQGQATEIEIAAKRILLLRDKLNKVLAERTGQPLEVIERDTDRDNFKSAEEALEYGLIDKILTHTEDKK
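FRET quenching reversal measured ClpP activation: 10 microg/mL B. subtilis ClpP at pH 8 with the FRET-FV decapeptide, read at 430 nm after 320 nm excitation. The 20-min minus 0-min signal was scaled between DMSO/no-enzyme wells and ADEP (5.8 microM final).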
An asterisk follows results filed as active; ? = inconclusive; nt = not tested or not shown; & = joins results of further samples; [ ] = remark or other dose.

SMILES	TRPML1 blocker	TRPML1 agonist	gsp agonist	gsp antagonist	Menin MLL FP FL	ClpP mod
O=C(NC1CCCC1)C1CC(=O)N(C2CCCCCCC2)C1 (stereo not drawn)	1	0.8	-48%[inhibitor]	0%	4.7	-0.4%
Cc1ncoc1C(=O)Nc1cccc(Cl)c1	-5	0.7	13%	1%	0.3	0.4%
COc1cc2c(cc1OC)CN(C(C)C(=O)N1CCc3ccccc31)CC2 (stereo not drawn)	11	-1.1	-20%	1%	1.0	4.3%
Cc1c(NC(=O)COC(=O)CCc2c[nH]c3ccccc23)c(=O)n(-c2ccccc2)n1C	-16	-0.5	-28%	2%	nt	-7.4%
O=C(O)c1ccc(-n2cccc2/C=C2/SC(=O)N(CC(=O)N3CCCC3)C2=O)cc1	-14	1.1	-35%	-4%	?	-1.1%
C[C@@H]1CN(Cc2cn(C)nc2-c2cccc(Cl)c2)C[C@H](C)O1	30	1.4	-10%[15.4 µM]	13%	-0.4	nt
Cc1ccc(NC(=S)NC(NC(=O)Cc2cccc3ccccc23)C(Cl)(Cl)Cl)cc1 (stereo not drawn)	-7	-0.6	-8%	5%	-1.9	-0.3%
Fc1ccc(CSc2nc3ccccc3[nH]2)c2ccccc12	19	1.2	-8%	-11%	6.2	-3.0%
Cn1ccc(O)c(C#N)c1=O	nt	nt	nt	8%	-9.7&-2.4	-1.8%
COCCCN1C(=O)c2ccccc2CC1(C)C(=O)NC1CCCCC1 (stereo not drawn)	-1	-0.1	nt	nt	nt	1.3%
Cc1cc(C(=O)CN2C(=O)NC(C)(c3ccc(F)c(F)c3)C2=O)c(C)n1C1CC1 (stereo not drawn)	5	8.1	-66%[inhibitor]	nt	nt	-0.6%
CC(CN(C)Cc1ccccc1)OC(=O)C1COc2ccccc2O1 (stereo not drawn)	-15	0.3	17%	3%	-3.2	1.7%
O=C(Nc1ccc(C(=O)N2CCC(O)(c3ccc(Cl)c(C(F)(F)F)c3)CC2)cc1)c1ccc(Br)o1	43	1.8	nt	-21%	nt	-0.8%
CCOC(=O)C(Cc1ccccc1)C(=O)Nc1ccc(NC(=O)C(Cc2ccccc2)C(=O)OCC)cc1 (stereo not drawn)	4	-0.6	?	10%	4.2	-2.8%
CN(C)c1ccc(C(CNC(=O)c2ccc(C(C)(C)C)cc2)N2CCOCC2)cc1 (stereo not drawn)	-3	-0.4	nt	nt	nt	-0.9%
COC(=O)[C@@H](Cc1ccccc1)NC(=O)NCCc1ccc(OC)c(OC)c1	-13	0.1	-3%	1%	-3.5	-2.0%
CCOC(=O)N1CCC(NC(=O)c2cc(C(=O)Nc3ccc(F)cc3F)ccc2CO)CC1	1	-0.5	-15%	-7%	1.9	-0.4%
Cc1ccc(NC(=O)CCN2CCN(C)CC2)cc1	-14	-0.6	?	12%	-14	nt
CC1CC(C)(C)CC2(C1)NC(=O)N(CC(=O)N1CCN(S(=O)(=O)c3cccc(F)c3)CC1)C2=O (stereo not drawn)	-3	-0.4	-71%[inhibitor]	3%	nt	nt
Cc1cc(C)cc(C(=O)NC(=S)Nc2ccc3[nH]c(=O)[nH]c3c2)c1	-1	-1.8	29%	3%	nt	-1.9%
CCN(CC)CCCNC(=S)N(CCO)Cc1cc2cc3c(cc2[nH]c1=O)OCCO3	14	0.7	-8%	1%	-4.6	4.0%
CC(C)CCOc1ccc(C(=O)NN2C(=O)NC3(CCCCC3)C2=O)cc1	34	0.6	-6%	19%	nt	-0.5%
Cc1ccc2cc(CN(Cc3ccco3)C(=O)C3CCCCC3)c(=O)[nH]c2c1C	4	1.1	-13%	-16%	9.7	-18%
C/C(=N/NC(=O)c1ccco1)c1ccc(Br)s1	-14	0.6	?	5%	nt	-17%
Cc1ccc(NC(=O)CCCOc2ccccc2)cc1S(=O)(=O)N1CCOCC1	11	-0.6	-26%	5%	nt	1.1%
(listing goes on)
SMILES	TRPML1 blocker	TRPML1 agonist	gsp agonist	gsp antagonist	Menin MLL FP FL	ClpP mod
CN1CCCN(C(=O)c2cc(-c3cccc4ccccc34)nc3ccccc23)CC1	-5	-0.5	-5%[15.4 µM]	0%	4.7	nt
N#Cc1ccc(C(=O)OCC(=O)N2CCOCC2)cc1	12	-0.2	-18%[15.4 µM]	6%	0.9	nt
Cc1ccc(N2CC(C(=O)Nc3cc(C(F)(F)F)ccc3N3CCCC3)CC2=O)cc1 (stereo not drawn)	8	1.2	11%	-12%	nt	-2.1%
NC(=O)C1CCN(S(=O)(=O)Cc2ccccc2Cl)CC1	4	-0.3	-16%	2%	-0.9	-3.9%
CCCCOc1nc2ccccc2nc1NS(=O)(=O)c1ccc(F)cc1	-1	1.0	-12%	-12%	-14	-5.8%
Cc1nc2c3ccccc3nc(NNC(=O)CCC(=O)NC(C)C)n2n1	-13	-0.4	0%[15.4 µM]	9%	1.3	-4.1%
Cc1ccc(-n2ncc3c(N4CCN(c5ccccc5)CC4)ncnc32)cc1C	8	-0.3	nt	nt	nt	-1.5%
CO/N=C/CC(=O)c1ccc(-c2ccccc2)cc1	-4	-0.2	3%	3%	-1.0	nt
Cc1ccc(-c2cc(NC(=O)c3cccc(C)c3)on2)cc1	1	3.9	nt	nt	nt	3.6%
Fc1ccc2c(c1)C(c1ccncc1)=NNC(c1ccccc1)=N2	16	-0.1	-22%	-15%	2.9	-0.6%
O=C(N/N=C/C=C/c1ccccc1)C1CC1c1ccccc1 (stereo not drawn)	31	1.3	0%	-7%	-1.1	0.0%
O=C(O)CCCC(=O)Nc1nc2n(n1)C(c1ccc(F)cc1)CC(c1ccc(Cl)cc1)N2 (stereo not drawn)	34	-0.5	-6%	8%	2.1	?
Cc1ccc(CS(=O)Cc2ccc(C(=O)NCc3cccs3)o2)cc1 (stereo not drawn)	8	-0.9	-12%	-9%	nt	-0.4%
COc1ccc(CCN2CCC(CNC(=O)c3cnn(-c4ccccc4)c3C3CCN(C(=O)OC(C)(C)C)CC3)CC2)cc1	5	2.7	nt	nt	nt	1.0%
COc1ccc(CNS(=O)(=O)c2ccc(-n3cnnn3)c(OC)c2)cc1	-5	-0.4	21%	3%	2.8	nt
O=C(c1cc(-c2ccccc2)nc2ccccc12)N1CCCC1	16	0.7	21%	-1%	-0.7	nt
COc1ccc(NC(=O)CSc2nnc3c(C)cc4ccccc4n23)cc1	0	-0.4	nt	nt	nt	-0.4%
CCOC(=O)c1ccc(NC(=O)c2ccccc2C)cc1	5	1.0	1%[15.4 µM]	1%	-5.6	-1.9%
CC(=O)NC(=S)Nc1cccc([N+](=O)[O-])c1	-4	-0.2	3%[15.4 µM]	nt	0.5	nt
O=C(/C=C/c1ccc([N+](=O)[O-])cc1)OCC(=O)N1CCCC1	12	-0.2	5%[15.4 µM]	2%	nt	-5.8%
Cc1cc(NC(=O)CS(=O)c2cn(Cc3cccc(Cl)c3)c3ccccc23)no1 (stereo not drawn)	13	-0.3	nt	nt	nt	1.8%
O=C(CSc1ncnc2sccc12)NC1CCS(=O)(=O)C1 (stereo not drawn)	8	-0.2	3%[15.4 µM]	-13%	nt	-1.2%
CCOC(=O)c1c(SCc2ccccc2)n[nH]c1N	11	-0.7	-43%[inhibitor]	7%	7.1	-1.2%
CC(=O)NC(CCc1ccc(Cl)c(Cl)c1)c1cccc(O)c(=O)c1 (stereo not drawn)	-5	0.1	-30%	nt	nt	-2.9%
CN1CCN(C(=O)c2cc(Br)cn2C)CC1	4	-0.5	-3%[15.4 µM]	2%	-0.9	-0.6%

Three compounds from above, ordered by number of heavy atoms, descending:
SMILES	TRPML1 blocker	TRPML1 agonist	gsp agonist	gsp antagonist	Menin MLL FP FL	ClpP mod
Cc1ccc(N2CC(C(=O)Nc3cc(C(F)(F)F)ccc3N3CCCC3)CC2=O)cc1 (stereo not drawn)	8	1.2	11%	-12%	nt	-2.1%
O=C(/C=C/c1ccc([N+](=O)[O-])cc1)OCC(=O)N1CCCC1	12	-0.2	5%[15.4 µM]	2%	nt	-5.8%
N#Cc1ccc(C(=O)OCC(=O)N2CCOCC2)cc1	12	-0.2	-18%[15.4 µM]	6%	0.9	nt

The listing continues:
SMILES	TRPML1 blocker	TRPML1 agonist	gsp agonist	gsp antagonist	Menin MLL FP FL	ClpP mod
COc1ccc(NC(=O)C2CCC(C(C)(C)C)CC2)cc1S(=O)(=O)N1CCCCC1 (stereo not drawn)	-1	84*	0%	-5%	7.6	1.9%
O=C(Nc1ccc(Br)cc1)c1cccc(N2C(=O)C3CCCCC3C2=O)c1 (stereo not drawn)	-9	1.5	4%	-26%	0.0	-0.6%
C/C(=N/Nc1ccnc2cc(Cl)ccc12)c1ccc(O)cc1	-4	-0.3	-39%[inhibitor]	-16%	nt	-11%
C#CCOCCOCCOCCNc1nc(N2CCN(C(=O)[C@H](C(C)C)n3cc(CCO)nn3)CC2)nc(N2CCN(C(=O)[C@H](Cc3ccc(O)cc3)n3cc(CCO)nn3)CC2)n1	30	-0.4	nt	7%	nt	-1.2%
Cc1ccc(NCC(=O)c2ccc([N+](=O)[O-])cc2)cc1	77	-0.1	8%[15.4 µM]	-1%	1.3	-24%
Cn1c(=O)oc2cc(S(=O)(=O)NCc3ccc(C(=O)O)cc3)ccc21	18	3.1	-11%	4%	?	-0.9%
CC1(C)Cc2nc3sc4c(=O)n(Cc5ccccc5)cnc4c3cc2CS1	-13	0.7	19%	1%	10	38%
CCN1C(=O)N(CC)C2C1N(CO)C(=O)N2CO (stereo not drawn)	15	0.7	-15%[15.4 µM]	13%	3.5	nt
COc1ccc2c(c1)OC[C@H]1[C@H]2N2C(=O)c3ccc(C)cc3NC(=O)[C@@]2(C)[C@H]1c1ccccc1	8	0.3	-32%[inhibitor]	-5%	nt	-6.4%
O=C(Oc1cccc(C(=S)N2CCOCC2)c1)c1ccccc1	14	-0.2	20%[15.4 µM]	2%	1.2	nt
Cc1ccc(NC(=O)c2cc(S(=O)(=O)NCCc3ccccc3)ccc2F)cc1Cl	35	0.8	-2%	-11%	-0.5	-0.6%
Cc1nc(C(=O)NCCCO)cc2c1[nH]c1ccccc12	1	-0.1	3%	0%	5.6	3.6%
CCCCN(CC)C(=O)Cn1c(=O)n(-c2ccc(OCC)cc2)c(=O)c2c3c(sc21)CCCC3	24	1.9	nt	nt	nt	0.0%
Cc1cc(C)c(NC(=O)CS(=O)CC(=O)N2CCN(c3cccc(C)c3C)CC2)c(C)c1 (stereo not drawn)	3	-0.2	5%	-32%	3.8	nt
Nc1[nH]ncc1-c1ccccc1	2	0.2	-60%[15.4 µM]	12%	3.0	nt
Cc1ccc(CCNC(=O)c2nnn(-c3cc(C)cc(C)c3)c2N)cc1	21	7.5	-11%	-4%	-0.3	-4.2%

High-throughput results deposited in PubChem by National Center for Advancing Translational Sciences (NCATS).
